Bioassay records deposited in PubChem BioAssay by National Center for Advancing Translational Sciences (NCATS).
VDR inhibitor: inhibitors of human vitamin D receptor | VDR-SRC2-3 peptide fluorescence polarization, 2 h | P11473 | Potency, µM, inactives show max response, negative = inhibition, usual class: inhibitors | 400,000 tested, 0.93% active; active = well fitted inhibition curve with a large enough effect; inconclusive = small, poorly fitted or top-dose-only effect, or another doubt; inactive = no such curve, though single readings can be large or run the other way; also: series mostly up to about 120 µM
Target sequence (P11473 whole entry, looked up): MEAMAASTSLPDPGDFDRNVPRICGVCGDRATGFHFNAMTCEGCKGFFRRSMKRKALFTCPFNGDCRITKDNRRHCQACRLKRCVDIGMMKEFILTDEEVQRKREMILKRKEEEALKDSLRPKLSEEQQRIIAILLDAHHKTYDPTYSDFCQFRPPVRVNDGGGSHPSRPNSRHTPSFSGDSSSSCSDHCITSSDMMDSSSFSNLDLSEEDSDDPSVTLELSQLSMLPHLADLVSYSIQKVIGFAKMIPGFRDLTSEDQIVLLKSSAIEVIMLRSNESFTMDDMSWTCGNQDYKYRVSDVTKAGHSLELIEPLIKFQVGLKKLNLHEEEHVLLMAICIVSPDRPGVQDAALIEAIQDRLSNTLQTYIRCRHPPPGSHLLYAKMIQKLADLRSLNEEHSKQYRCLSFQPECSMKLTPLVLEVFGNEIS
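After 23 nl compound addition and a short centrifugation, plates sat for 2 hours at ambient temperature; polarization of fluorescence then indicated loss of VDR binding to peptide SRC2-3.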
Numbers without * were called inactive; ? = inconclusive; [ ] = another dose, or the depositor's remark. % is scaled to controls: 0 for no effect and ±100 for the full control effect; potency is read from the fitted curve at half-maximal effect. The list is partial (hit frequency here may not be typical).

SMILES | VDR inhibitor
C=CCOc1ccc(C2C(C(=O)c3ccco3)=C(O)C(=O)N2c2nnc(C)s2)cc1 (configuration not stated) | ?
COc1ccccc1OCCC(=O)OCC(=O)c1c(N)n(C)c(=O)n(C)c1=O | -10%
O=C(NC1(C(F)(F)F)NC(=O)N(Cc2ccco2)C1=O)c1cccnc1 (configuration not stated) | 105%[activator]
O=C(CN1CCCCC1)Nc1cccc([N+](=O)[O-])c1 | 18%
COc1ccc(C(=O)NCc2nnc(SCC(=O)Nc3ccc(F)cc3)n2-c2ccccc2)cc1 | 0%
CCN1CCN(C(c2ccccc2F)c2c(O)cc(C)n(CCOC)c2=O)CC1 (configuration not stated) | -11%
CCOC(=O)c1cccc(NC(=O)c2ccc3nc(C(C)C)oc3c2)c1 | 4%
Cc1ccc(NC(=O)CN(C)C(=O)COC(=O)CNS(=O)(=O)c2ccc(Br)cc2Cl)cc1 | -12%
CCN(CC(=O)Nc1ccc(N2CCOCC2)cc1)CC(=O)NC(C)(C)C | 4%
COc1ccc(/C=N/NC(=O)CCc2c(C)n[nH]c2C)cc1OC | -7%
CCCC(=O)NCCc1cc2ccc(C)c(C)c2[nH]c1=O | -20%
CCC[C@@H]1C[C@@]1(CCC)[C@@H](NC(=O)c1ccccc1)c1ccc(C(=O)OC)cc1 | -19%
COc1ccc(CC(=O)Nc2ccc(C)c(S(=O)(=O)N3CCCCCC3)c2)cc1 | -9%
COc1cccc(/C=N/NC(=O)CC(=O)NCCc2ccccc2)c1OC | -14%
CCCOCCOC(=O)C1=C(C)NC(=O)NC1c1cc(Cl)c(O)c(OC)c1 (configuration not stated) | 2%
COc1ccc2c(c1)c([C@@H]1[C@H](C)[C@H]3CCCC[C@H]3CN1S(=O)(=O)c1ccc(C)cc1)cn2C | -4%
O=c1[nH]c2cnccc2n1-c1ccccc1 | 10%
CCC(C)NC(=O)c1sc2nc(C)c(C(=O)Nc3ccc(Cl)cc3)c(-c3ccc(Br)cc3)c2c1N (configuration not stated) | -12%
CCOC(=O)c1cnc2c(Cl)cccc2c1NCCN(C)C | -4%
C=CCn1c(CSCc2ccccc2)nnc1SCC(=O)N1CCN(c2ccccc2)CC1 | 0%
O=C(Cc1ccc(-c2ccccc2)cc1)NCCN1CCOCC1 | -4%
Cc1ccc(CCNC(=O)c2cc(S(=O)(=O)N3CCOCC3)cn2C)cc1 | -1%
CCN(CC)c1ccc(/C=N/N2CCN(Cc3ccccc3Cl)CC2)cc1 | -4%
Cn1nc(NC(=O)CC23CC4CC(CC(C4)C2)C3)c2c(F)cccc21 | -5%
CC(=O)c1ccc(NC(=O)c2ccc(S(=O)(=O)c3ccccc3)cc2)cc1 | -10%
Cc1cccc(C)c1NC(=O)CN(C)C(=O)c1ccc(COc2ccccc2)cc1 | -12%
CCC(C)(C)n1nnnc1C(c1ccc(Cl)cc1)N1CCN(C)CC1 (configuration not stated) | 8%
O=C(CCS(=O)(=O)c1ccccc1)N1CCN(c2ccccc2)CC1 | -4%
CCOc1ccc(NS(=O)(=O)c2ccc(C(=O)N3CCCCCC3)cc2)cc1 | -7%
O=C(CSc1nc2cc(Cl)ccc2c(=O)n1Cc1ccco1)Nc1ccc(S(=O)(=O)N2CCOCC2)cc1 | -11%
COc1ccc(-n2nc(C(=O)NCCc3cccc(C)c3)c3c4ccccc4n(C)c3c2=O)cc1Cl | 6%
CCCCS(=O)CC(O)COc1ccc(C(C)(C)C)cc1 (configuration not stated) | -5%
COc1cc(OC)c2c(=O)c(-c3ccc4c(c3)OCO4)coc2c1 | -5%
COc1ccc(N2C(=O)[C@@H]3[C@H](C2=O)[C@H]2c4ccccc4C=CN2[C@@H]3C(C)=O)cc1 | -1%
O=C(NC(=S)Nc1ccccc1N1CCOCC1)c1ccc(-c2cccc(Cl)c2)o1 | -18%
Cc1cc(N2C(=O)C(O)=C(C(=O)c3ccc(C)o3)C2c2ccc(OCc3ccccc3)cc2)no1 (configuration not stated) | ?
COc1ccc(CCNC(=O)c2ccc3c(c2)N(Cc2cccc(Cl)c2)C(=O)c2ccccc2S3=O)cc1OC (configuration not stated) | 4%
CCCc1nc2nc(C)c(NS(=O)(=O)c3ccc4c(c3)CCCC4)c(=O)n2[nH]1 | 0%
NC(=O)Cc1nc2scc(-c3ccc(Cl)cc3)c2c(=O)[nH]1 | 6%
COc1ccccc1N1CCN(S(=O)(=O)c2c(C)sc3ncn(CC(=O)N(C)c4ccc(C(C)C)cc4)c(=O)c23)CC1 | -22%

Part of the list above, as labelled records.
> COc1ccc(-n2nc(C(=O)NCCc3cccc(C)c3)c3c4ccccc4n(C)c3c2=O)cc1Cl
  VDR inhibitor: 6%

> COc1ccccc1N1CCN(S(=O)(=O)c2c(C)sc3ncn(CC(=O)N(C)c4ccc(C(C)C)cc4)c(=O)c23)CC1
  VDR inhibitor: -22%

> COc1ccc(N2C(=O)[C@@H]3[C@H](C2=O)[C@H]2c4ccccc4C=CN2[C@@H]3C(C)=O)cc1
  VDR inhibitor: -1%

> CCCc1nc2nc(C)c(NS(=O)(=O)c3ccc4c(c3)CCCC4)c(=O)n2[nH]1
  VDR inhibitor: 0%

(list continues)
SMILES | VDR inhibitor
O=C(O)CCCN1C(=O)NC2NC(=O)NC21 (configuration not stated) | -2%
O=C(O)c1ccc(NCc2cccnc2)cc1 | 4%
Cc1oc2c(c(C)cc3oc(=O)c(CC(=O)N[C@H](C(=O)O)C(C)C)c(C)c32)c1C | 29%
Cc1c(C(=O)Nc2cccc(Cl)c2)oc2ccc(S(=O)(=O)N3CCC4(CC3)OCCO4)cc12 | -4%
O=C(Nc1nc(-c2ccc3c(c2)OCO3)cs1)C1CC1 | 0%
COc1ccccc1-n1c(C)nnc1SCC(=O)NCc1ccccc1 | 0%
O=C(/C=C/c1ccc(OC(F)F)cc1)OCC(=O)N1CCN(C(=O)c2ccco2)CC1 | -16%
CC(C)(C)C(=O)N1CCC(O)(CS(=O)(=O)c2ccc(Cl)c(Cl)c2)CC1 | 12%
CCc1ccc(CN(C)Cc2nc(Cc3cccc(C(F)(F)F)c3)no2)nc1 | -13%
Cc1sc2nc(CSCC(=O)N(C)c3ccccc3)[nH]c(=O)c2c1C | 7%
O=C(NCC(=O)N1CCN(c2ccccc2O)CC1)c1ccc(Br)o1 | 16%
CC(=O)OCCN(CCCn1c(-c2ccncc2)nc2ccccc21)c1nc(-c2ccc(C)cc2)cs1 | -12%
Cn1c(=O)c2c(nc(SCC(=O)Nc3ccc(F)cc3)n2Cc2ccccc2F)n(C)c1=O | -4%
COc1ccc(/C=C/c2nnc(NC(=O)COc3ccc(Cl)cc3)s2)cc1 | -9%
CN(CC(=O)Nc1ccccc1C(F)(F)F)C(=O)c1cc(Cl)nc2ccccc12 | 14%
Cc1ccc(NC(=O)NC2CC(=O)N(c3ccc4c(c3)OCCO4)C2)c(C)c1 (configuration not stated) | 4%
CC(=O)c1ccc(NC(=O)Cn2cnc(S(=O)(=O)N3CCCCC3)c2)cc1 | -10%
COc1cc(OC)cc(-c2c(-c3ccsc3)c3cc(Br)ccc3n2C)c1 | -2%
COc1ccc(NC(=O)N2CCCC2C(=O)NCCc2ccccc2)cc1 (configuration not stated) | -8%
CCOC(=O)c1cn2c(C)cccc2n1 | 0%

Among those listed so far, three contain a tert-butyl group.
SMILES | VDR inhibitor
CCN(CC(=O)Nc1ccc(N2CCOCC2)cc1)CC(=O)NC(C)(C)C | 4%
CCCCS(=O)CC(O)COc1ccc(C(C)(C)C)cc1 (configuration not stated) | -5%
CC(C)(C)C(=O)N1CCC(O)(CS(=O)(=O)c2ccc(Cl)c(Cl)c2)CC1 | 12%

Next section.
SMILES | VDR inhibitor
COC(=O)c1c(NC(=O)c2ccccc2)sc(C(=O)c2ccccc2)c1C | 15%
CSc1nc(-c2ccccc2)c(C#N)c(=O)n1C | 5%
CC(=O)C1=C(C)Nc2ncnn2C1c1ccccc1F (configuration not stated) | 11%
CC(C)=C(NC(=O)c1ccco1)C(=O)NCCc1nc2ccccc2[nH]1 | 8%
CC(=O)Nc1scc(-c2ccccc2)[n+]1-c1ccc(C)cc1 | -10%
Cc1cc(C)cc(N(CC(=O)NC2CCCC2)C(=O)CNC(=O)c2ccco2)c1 | -7%
CS(=O)(=O)c1ccc(Cl)c(NC(=O)COC(=O)c2cccc(S(=O)(=O)N3CCCC3)c2)c1 | -8%
O=C(NCCOCCNC(=O)OCc1ccccc1)OCc1ccccc1 | -9%
CC1CCCCN1CCCNC(=O)c1ccc(NC(=O)C2=CSCCO2)cc1 (configuration not stated) | 2%
C=CCN(c1ccc(C(=O)Nc2ccc3c(c2)OCO3)cc1)S(C)(=O)=O | -9%

Reformatted: results already given.
SMILES,VDR inhibitor
CC(=O)Nc1scc(-c2ccccc2)[n+]1-c1ccc(C)cc1,-10%
Cc1cc(C)cc(N(CC(=O)NC2CCCC2)C(=O)CNC(=O)c2ccco2)c1,-7%
CS(=O)(=O)c1ccc(Cl)c(NC(=O)COC(=O)c2cccc(S(=O)(=O)N3CCCC3)c2)c1,-8%
O=C(NCCOCCNC(=O)OCc1ccccc1)OCc1ccccc1,-9%
CC1CCCCN1CCCNC(=O)c1ccc(NC(=O)C2=CSCCO2)cc1 (configuration not stated),2%

Later entries.
SMILES | VDR inhibitor
Cc1cc(C)cc(NC(=O)C2CCCN(S(=O)(=O)c3cccc4nsnc34)C2)c1 (configuration not stated) | -18%
O=S(=O)(Nc1c(Br)cc(Br)c2cccnc12)C1CCCCC1 | -5%
O=C(CSc1nnnn1-c1cccc2ccccc12)Nc1ccc(N2CCOCC2)c(Cl)c1 | 4%
CCOc1ccc(CCNC(=O)COC(=O)C2CCN(S(=O)(=O)c3ccc(C)c(C)c3)CC2)cc1OCC | -5%
Cc1nn(C)c(C)c1NC(=O)/C(C#N)=C\N(C)C | -22%
O=C(CN1CCOCC1)Nc1nc2ccc(Br)cc2s1 | -20%
COC(=O)c1scc(C)c1NC(=O)CSc1ccc(Cl)cc1 | -9%
Cc1ccc(C(=O)O/N=C(\c2ccccc2)c2ccncc2)cc1 | -20%
Cc1csc(SCC(=O)N(C)c2c(N)n(Cc3ccccc3)c(=O)[nH]c2=O)n1 | -4%
O=C(NCc1ccc(F)cc1)c1noc2c1CCCCC2 | -17%
O=C(Nc1cccc(Cl)c1)Nc1sccc1-c1nc2ccccc2s1 | 64%[activator]
COc1ccc(-c2cc(C(=O)Nc3cc(C)ccc3O)no2)cc1 | -15%
CCc1ccc(-c2nn(CC(=O)Nc3ccccc3)c3c2cnc2ccc(F)cc23)cc1 | -4%
CCc1cccc(C)c1NC(=O)Cn1nc(C)c2nn(-c3ccc(Cl)cc3)c(C)c2c1=O | 9%
O=C(Nc1ccc2nc(SCC(=O)N3CCCc4ccccc43)sc2c1)c1cccc(F)c1 | -2%
COc1cccc(-n2cnc3cccc(N)c32)c1 | 5%
COc1ccc(NC(=O)CSC2CC(=O)N(c3ccc4c(c3)OCCO4)C2=O)cc1 (configuration not stated) | 5%
O=C(c1ccc2snnc2c1)N1CCOCC1 | -3%
COc1cc2c(cc1OC)C(c1ccccc1)N(C(=O)CSCC(=O)O)CC2 (configuration not stated) | -5%
CCCCCC1CC(COc2ccccc2)OC1=O (configuration not stated) | 6%
Cc1ccc(S(=O)(=O)Nc2nc(C)c(C(=O)Nc3ccccc3)s2)cc1 | 8%
COc1ccc(CCNC(=S)Nc2cccc3ccccc23)cc1 | -2%
COc1cc(OC)cc(-c2nc(SCC(=O)Nc3ccccc3F)n[nH]2)c1 | -5%
N#CC1=C(N)N(c2ccccc2)C2=C(C(=O)CCC2)C1c1ccccc1 (configuration not stated) | -1%
O=C(O)c1cccc(S(=O)(=O)Nc2ccccc2-c2ccccc2)c1 | -12%
CCOC(=O)C1CCN(C(=O)CCC(=O)NNc2nc3ccccc3c3nc(C)nn23)CC1 | 2%
O=S(=O)(c1ccc2oc(=S)[nH]c2c1)N1CCCCC1 | -4%
CC(C)C[C@H](NC(=O)c1nc[nH]c1C(=O)N1CCNCC1)C(=O)OCc1ccccc1 | -12%
Cc1c(N(C)S(=O)(=O)c2cc(C(=O)Nc3ccccn3)ccc2Cl)c(=O)n(-c2ccccc2)n1C | 10%
COC(=O)[C@H](COC(C)(C)C)NC(=O)O[C@@H]1C(=O)c2ccc(OC)cc2O[C@H]1c1ccc2c(c1)OCO2 | 7%
COc1ccc(NC(=O)CCS(=O)(=O)c2ccc3nc(C)sc3c2)cc1OC | 16%
COc1ccc(C#Cc2c(-c3ccccc3)n(-c3ccccc3)c3ccc(CO)cc23)cc1 | -20%
COc1ccc(CCNC(=O)CCc2cc(OC)c(OC)c(OC)c2)cc1OC | 10%
Cc1nonc1OCCn1nnnc1N | 2%
COc1cccc(NC(=O)C(=O)NCCc2csc(-c3ccc(C)cc3)n2)c1 | 10%
O=C(COc1ccccc1)Nc1cc(C(F)(F)F)ccc1N1CCCC1 | -5%
COC(C[C@H]1O[C@H]1C(=O)[C@@H](C)OCc1ccccc1)OC | -5%
CCSc1nc2c(c(=O)n1-c1ccc(F)cc1)SCC2 | 12%
CCNc1ncnc2c1cnn2C | 5%
Nc1nc2ccc(Cl)cc2o1 | -2%
CCN(CC)S(=O)(=O)c1ccc(C(=O)Nc2cccc(C)c2)cc1 | 1%
Cc1ccc(/C=C2/C(=O)N=C(N)N2C)s1 | -16%
O=C(CCCCCN1C(=O)[C@@H]2Cc3ccccc3CN2C1=O)Nc1cccc(F)c1 | -2%
CC(SCC(=O)O)c1nc2ccccc2[nH]1 (configuration not stated) | 18%
N#Cc1cccc(-c2cncnc2NCc2ccccc2)c1 | -4%
CCc1ccccc1NC(=O)Cn1nc(C(F)(F)F)cc1C1CC1 | -13%
CCOc1ccccc1NC(=O)c1cn(C2CCCC2)c(=O)c2c1c1ccccc1n2C | 9%
CC(Nc1ccc(-c2nc(-c3ccncc3)no2)cc1[N+](=O)[O-])c1ccccc1 (configuration not stated) | 2%
CCOC(=O)c1c(C)[nH]c(C(=O)OCC(=O)NCc2ccc(OC)c(OC)c2)c1C | -15%
